Sfp PPTase inh: Sfp phosphopantetheinyl transferase inhibition | Q9F4F7 | Biochemical Sfp PPTase activity, qHTS | Potency, µM, inactives show max response, negative = inhibition, usual class: inhibitors | 310,000 tested, 3.5% active | AID 1490; active = well fitted inhibition curve with a large enough effect; inconclusive = small, poorly fitted or top-dose-only effect, or another doubt; inactive = no such curve, though single readings can be large or run the other way;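 note: the enzyme is Sfp with the accession as filed and its product quenches rhodamine fluorescence; potency is the fitted concentration of half-maximal effect; 0% = enzyme reaction without inhibitor and -100% = no enzyme wells; top concentration of the series not given in the record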
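Fluorescence-quenching assay: 15 nM Sfp-PPTase preincubated 15 min at room temperature with compound, then 5 uM rhodamine-CoA and 12.5 uM BHQ-2-labelled YbbR peptide added. Fluorescence (ex 525/em 598 nm) read at start and after 30 min; difference gives rate.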
TRPV1 PAM: enhances activation of the human vanilloid receptor TRPV1. 320,000 tested, 0.02% active. Q8NER1. TRPV1-expressing cells, Fluo-8 calcium influx, capsaicin EC20 potentiation; host cell line not named in the record; control for the full effect not named in the record. potentiation, % at 8.33 µM; active means potentiation above 80%; inconclusive means 30% to 80%; inactive means below 30%; note: 0% is about no effect
Target sequence (Q8NER1 whole entry, looked up): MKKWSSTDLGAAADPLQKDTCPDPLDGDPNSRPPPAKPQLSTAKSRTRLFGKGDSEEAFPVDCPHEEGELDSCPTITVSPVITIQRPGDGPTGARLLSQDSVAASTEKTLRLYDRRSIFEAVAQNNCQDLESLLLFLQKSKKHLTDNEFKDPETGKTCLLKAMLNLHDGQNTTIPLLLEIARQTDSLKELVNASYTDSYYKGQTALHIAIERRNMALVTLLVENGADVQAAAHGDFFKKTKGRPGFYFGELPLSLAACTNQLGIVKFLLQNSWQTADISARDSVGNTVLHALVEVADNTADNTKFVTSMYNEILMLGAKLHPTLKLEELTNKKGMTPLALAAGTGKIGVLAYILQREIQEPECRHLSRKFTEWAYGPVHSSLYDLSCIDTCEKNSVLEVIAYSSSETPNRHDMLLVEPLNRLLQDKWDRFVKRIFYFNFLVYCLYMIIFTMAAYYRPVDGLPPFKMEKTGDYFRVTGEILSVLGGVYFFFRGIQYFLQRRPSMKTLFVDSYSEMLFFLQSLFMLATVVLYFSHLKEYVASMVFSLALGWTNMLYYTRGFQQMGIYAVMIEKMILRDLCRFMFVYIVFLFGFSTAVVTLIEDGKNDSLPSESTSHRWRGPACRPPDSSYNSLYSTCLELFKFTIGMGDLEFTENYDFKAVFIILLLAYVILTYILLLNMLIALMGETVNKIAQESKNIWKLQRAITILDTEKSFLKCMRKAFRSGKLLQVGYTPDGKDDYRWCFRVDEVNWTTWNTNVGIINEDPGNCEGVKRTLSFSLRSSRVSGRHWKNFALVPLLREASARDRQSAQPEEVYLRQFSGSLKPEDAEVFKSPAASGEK
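Fluo-8 calcium influx in TRPV1-expressing cells, kinetic read (ex 480/em 520 nm). Compound added and read 3 min for agonist activity, followed by capsaicin at EC20 final and 2 min further read for enhancement.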
ClpP mod: qHTS Assay for Activators of ClpP; purified B. subtilis ClpP, FRET peptide cleavage, 20 min; 340,000 tested, 1.9% active; Potency, µM (series often up to 57.5 µM), for the others: at the highest dose activity change, negative = active; active = well fitted falling curve with a large enough effect; inconclusive = small, poorly fitted or top-dose-only effect; inactive = no such curve, though single readings can be large or run the other way; note: potency is the fitted concentration of half-maximal effect; the source files actives as falling curves though it sought activators and does not explain the sign; nearly all actives have a fitted effect of over 65% in size; many hits overshoot -100%
Target sequence (P80244 whole entry, looked up): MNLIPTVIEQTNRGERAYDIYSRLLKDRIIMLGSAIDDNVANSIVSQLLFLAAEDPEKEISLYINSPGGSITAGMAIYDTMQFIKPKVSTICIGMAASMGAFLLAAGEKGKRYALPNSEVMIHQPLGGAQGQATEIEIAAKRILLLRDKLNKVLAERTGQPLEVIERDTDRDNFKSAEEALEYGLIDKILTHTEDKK
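FRET quenching reversal measured ClpP activation: 10 microg/mL B. subtilis ClpP at pH 8 with the FRET-FV decapeptide, read at 430 nm after 320 nm excitation. The 20-min minus 0-min signal was scaled between DMSO/no-enzyme wells and ADEP (5.8 microM final).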
Menin-MLL FL inh: inhibitors of human menin-MLL interaction, wild-type MLL peptide; Fluorescence polarization, fluorescein-MLL peptide displacement from menin; FP activity change, % at 61.4 µM; 290,000 tested, under 10 active; AID 1766; inconclusive = falling polarisation curve, or a change in total fluorescence; inactive = total fluorescence flat and polarisation flat or rising; no compound was filed as active; the % refers to the polarisation; negative = inhibition;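 note: % of control where 0% means no effect; inhibitors lower the polarisation; unlabelled MLL peptide was the positive control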
gsp antag: antagonists of gsp mutant (McCune-Albright syndrome). gsp-mutant cells, cAMP HTRF, 30 min; control for the full effect not named in the record. 340,000 tested, 0.4% active. Potency, µM (top dose mostly 76.9 µM), inactives show top-dose activity change, negative = inhibition, hits mostly inhibitors; active = falling curve of any shape with a large fitted effect; inconclusive = falling curve, mostly with a smaller effect; inactive = flat or rising curve; cell line not stated here;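 note: intracellular cAMP measured with PDE inhibitor Ro 20-1724 present during compound exposure; potency is the fitted concentration of half-maximal effect; % is set by controls: 0 for no effect and ±100 for the full control effect; nearly all actives have a fitted effect of over 65% in size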
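HTRF cAMP measurement after 30 min RT detection following 30 min, 37C compound treatment alongside […] (added as 300 uM solution) in G418-selected cells seeded at 2000/well and grown 16–24 h.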
D2 potentiator: positive allosteric modulators of human D2 dopamine receptor | P14416 | DiscoveRx D2 beta-arrestin cells, luminescence, 90 min; 100% = 57 uM dopamine signal | potentiation, % (test concentration not listed) | 360,000 tested, 0.23% active; active = potentiation of 50% or more; inconclusive = 30% to 50%; inactive = 30% or less;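 note: compound concentration not given in the record; tested on top of an EC20 dose of dopamine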
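D2 cells co-treated with compound plus 50 nM dopamine (EC20) for 90 min at 37 deg C to detect potentiation. Beta-arrestin recruitment was read as enzyme-fragment luminescence after 1 h at ambient temperature. Full response was set by 57 uM dopamine.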
gsp ag: agonists of gsp mutant (McCune-Albright syndrome) | AID 624287 | 340,000 tested, 0.13% active | gsp mutant cells, cAMP HTRF, 30 min; control for the full effect not named in the record | Potency, µM (top dose mostly 76.9 µM), inactives show at the highest dose activation (cAMP increase), actives largely listed as activators; active = well fitted activation curve with a large enough effect; inconclusive = small, poorly fitted or top-dose-only effect, or another doubt; inactive = no such curve, though single readings can be large or run the other way; cell line not stated here;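 note: phosphodiesterase inhibitor Ro 20-1724 added with compounds to block cAMP breakdown; potency is the fitted concentration of half-maximal effect; nearly all actives have a fitted effect of over 60% in size; about a fifth of the inactives were tested at one dose only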
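Cells in DMEM/10% FBS with G418 were pretreated with compounds in DMSO plus […] (300 uM stock) for 30 min at 37C. cAMP was measured by HTRF (cAMP-d2 plus anti-cAMP antibody-K) after 30 min at room temperature.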
Starred values were filed as active, the others as inactive; ? = inconclusive; nt = no result given; & = joins results of further samples; [ ] = dose if it differs, or a comment.

SMILES	Sfp PPTase inh	TRPV1 PAM	ClpP mod	Menin-MLL FL inh	gsp antag	D2 potentiator	gsp ag
CN(CCOc1ccccc1)C(=O)c1ccc(F)c(S(=O)(=O)N2CCOCC2)c1	nt	0	2.6%	nt	6%	-5	-3%
CCOC(=O)[C@@H]1CSCCS(=O)(=O)N1	nt	nt	-0.2%	nt	13%	-2	nt
CC(C)(C)n1cnnc1Sc1ncccc1[N+](=O)[O-]	7%	16	0.8%	0.1	1%	-7	-24%
COc1ccc2c(c1)[nH]c1c(=O)n(CCN(C)C)cnc12	21%	4	-20%	-0.2	13%	-6	-1%
COc1cc(/C=N/NC(=O)CCc2n[nH]c(=O)[nH]c2=O)ccc1O	7%	3	?	2.6	-3%	-2	3%[15.4 µM]
CC(=O)Nc1ccc(OCC(=O)N2CCc3ccccc3C2)cc1	7%	3	nt	nt	7%	-11	-10%[15.4 µM]
O=S(=O)(NC1CC1)c1ccc(S(=O)(=O)N2CCCC3(CCCCC3)C2)cc1	8%	23	1.9%	1.6	14%	-13	-37%[inhibitor]
CS(=O)(=O)N(CC(=O)NCc1ccc2c(c1)OCO2)C1CCCCC1	16%	-4	nt	0.9	-1%	-2	1%
O=C(Nc1ccc(Br)cc1)C1CCN(C(=O)c2ccc(F)cc2)CC1	20%	5	1.0%	5.0	?	-13	8%[15.4 µM]
Cc1cc(C)nc(SCc2ccc(C(=O)NN=C3CCCC3)cc2)n1	6%	-1	0.3%	0.8	0%	-9	25%
COCCn1c(-c2ccc(-c3ccccc3Cl)o2)nc2c1c(=O)[nH]c(=O)n2CC(C)C	18µM*	1	4µM*	6.1	-2%	-14	?
CC(C)[C@@H](NC(=O)C1CCC(CNC(=O)[C@H](Cc2ccccc2)NC(=O)OC(C)(C)C)CC1)C(=O)O (stereo partly specified)	1%	-15	nt	-2.9	7%	-6	?
COc1ccc(C2=C(Nc3ccc(F)cc3)c3ccccc3C2=O)cc1	-28%	3	-2.7%	1.5	5%	-3	-35%[inhibitor]
Cc1cc(C)c(S(=O)(=O)N2CCCc3ccccc32)c(C)c1	-11%	-5	-3.8%	0.0	?	21	-2%
Cc1cc(C(=O)NCC(=O)O)c(C)o1	4%	6	-15%	-0.3	5%	-1	-60%
CC(C)CCNC(=O)C(=O)Nc1cc2c3c(c1)CC(=O)N3CCC2	5%	-30	2.2%	-0.3	0%	3	?
Nn1cc(-c2ccccc2)nc1SCC(=O)Nc1ccc2c(c1)OCO2	-11%	-15	-5.3%	0.4	-3%	-6	24%
COCCn1nnnc1C(CC(C)C)N1CCN(c2cccc(OC)c2)CC1 (stereo unspecified)	2%	-10	2.2%	1.8	2%	-2	3%
CCc1ccc(C2NC(=S)NC3=C2C(=O)CC(C)(C)C3)cc1 (stereo unspecified)	-1%	-19	-2.9%	3.9	1%	-29	9%
CCCCC(=O)Nc1ccc2oc(-c3ccncc3)nc2c1	11%	nt	?	5.9	0%	-8	2%
CC(C)c1ccc(NC(=O)C(c2ccccc2)N(C)C(=O)CCc2c[nH]c3ccccc23)cc1 (stereo unspecified)	nt	nt	-7.0%	nt	-4%	-12	nt
COc1cccc(CN(C)C(=O)c2cc(S(=O)(=O)NCc3ccccc3)ccc2C)c1OC	nt	-12	-1.7%	nt	-15%	-19	5%
O=C1Cc2ccccc2C(c2ccc(Br)cc2)N1 (stereo unspecified)	9%	26	-0.8%	1.7	-22%	-1	-17%
Cn1ncc2c(NCc3ccccc3)ncnc21	-5%&18%	19&-3	-0.7%	-1.7&0.0	6%	-5	-6%
CCC(=O)Nc1ccc2c(c1)N(C(C)=O)c1ccccc1CC2	11%	-5	-1.0%	-11	-5%	-1	-10%[15.4 µM]
CC1CCC2(CC1)NC(=O)N(CC(=O)N1CCc3ccccc3C1)C2=O (stereo unspecified)	18%	-2	nt	1.6	6%	-1	-2%[15.4 µM]
C/C(=C/c1ccccc1)C(=O)N1CCC(C)CC1	4%	-6	0.2%	2.3	-6%	-1	25%
O=C(CC(Nc1cccc(Cl)c1Cl)C(=O)O)c1ccccc1 (stereo unspecified)	8.9µM*	11	0.5%	-3.1	-1%	-1	-8%
C=CCn1c(SCC(=O)c2cc(C)n(CCOC)c2C)nc2sc(C)c(C)c2c1=O	25%	-20	1.6%	9.6	-17%	-1	-1%
Cn1c(CNC(=O)CCNC(=O)c2cccc(Br)c2)cc(=O)n(C)c1=O	9%	?	-2.8%	nt	18%	-16	19%
Cc1ccccc1CNC(=O)C1CCC(=O)N(Cc2cccc(F)c2)C1 (stereo unspecified)	5%	14	-2.1%	nt	12%	-8	?
CC(C(=O)N1CCN(c2ccc([N+](=O)[O-])cc2)CC1)N1C(=O)C2CC=CCC2C1=O (stereo unspecified)	2%	2	1.3%	-3.1	-7%	-7	1%
CCOC(=O)C1C(=O)NC(N2CCN(Cc3ccccc3)CC2)=NC1c1ccccc1 (stereo unspecified)	8%	2	-1.7%	0.4	-1%	-7	?
CCc1nnc(NC(=O)CSc2nnc(CNc3ccc(OC)cc3)n2CC)s1	3%	10	-1.6%	0.1	-17%	-3	?
O=C(Nc1ncc2c(n1)-c1ccccc1CC2)c1ccc(Cl)cc1	0%	nt	28µM*	0.3	-13%	-19	-7%
O=C(/C=C/c1ccccc1Cl)Nn1cnc2ccccc2c1=O	-17%	22	-2.6%	-0.8	1%	-4	?
CC(=O)Nc1ccc(C(=O)Nc2ccc(S(=O)(=O)N3CCCC3)cc2)cc1	5%	-2	-3.0%	1.3	-4%	-15	-9%
Cc1ccc(NC(=O)Nc2nc3ccccc3s2)cc1NC(=O)Nc1nc2ccccc2s1	-22%	17	-8.9%	1.5	-3%	-14	13%
Cc1ccc([N+](=O)[O-])cc1N(CC(=O)N1CCCCC1)S(C)(=O)=O	22%	3	nt	-0.6	nt	3	12%[15.4 µM]
COc1ccc(CC(NC(=O)c2ccccc2)C(=O)NCC(=O)O)cc1 (stereo unspecified)	19%	-10	-2.5%	-1.1	-6%	-5	-2%
O=C(Nc1ccccc1-c1ccccc1)c1ccc(NC(=O)c2ccco2)cc1	17%	-11	-2.2%	4.1	-11%	-5	22%
CCOc1ccccc1-n1c(=S)sc2c(=O)n(-c3ccc(C)cc3)c(=S)[nH]c21	45µM*	7	-0.6%	-0.6	4%	1	?
O=[N+]([O-])c1cnccc1Nc1ccc(F)cc1	-10%	23	1.0%	4.1	9%	-5	-34%
CCOc1ccccc1/C=C/c1onc(C)c1S(=O)(=O)N1CCC(C(=O)N(CC)CC)CC1	-15%	-13	?	nt	-25%	-21	-24%
Cc1ccc(NC(=O)Cn2nc(C)c([N+](=O)[O-])c2C)cc1Cl	18%	-3	-0.7%	-2.1	-25%	-29	6%[15.4 µM]
CCOc1ccc(OCCC(=O)OCC(=O)Nc2ccc3c(c2)OCO3)cc1	nt	8	nt	nt	5%	-16	10%[15.4 µM]
COc1ccc(Br)c(C=O)c1OS(=O)(=O)c1ccc(C)cc1	nt	nt	-2.0%	nt	nt	20	20%
O=C1CCCCC1S(=O)(=O)c1ccccc1 (stereo unspecified)	4%	0	-2.5%	-0.1	15%	-20	3%
Cc1cc(O)c(-c2n[nH]c3c2C(c2cccc(O)c2)N(Cc2cccnc2)C3=O)cc1Cl (stereo unspecified)	-7%	6	-8.6%	1.6	1%	11	-9%
CC(C)N(CCNC(=O)c1ccc(NC2=NC3CS(=O)(=O)CC3S2)cc1)Cc1ccco1 (stereo unspecified)	12%	9	1.3%	-3.6	4%	-5	13%
CSCCC(NC(=O)COc1ccccc1)C(=O)NCCOc1ccccc1 (stereo unspecified)	nt	2	-0.1%	nt	-10%	1	?
OCCN=C1CCCc2c1[nH]c1ccc(Cl)cc21	-5%	-13	nt	0.1	7%	2	5%[15.4 µM]
CNc1nc(N/N=C/c2cc3c(cc2[N+](=O)[O-])OCO3)nc(Nc2ccccc2)n1	5%	10	1.8%	2.9	1%	9	-9%
Cc1ccc(NC(=O)N2CCCCC2)cc1[N+](=O)[O-]	16%	-33	1.1%	-2.4	2%	11	-14%
COC(=O)c1ccccc1-c1ccc(C(c2c(C)[nH][nH]c2=O)c2c(C)[nH][nH]c2=O)o1	6%	-12	nt	-2.9	4%	-2	38%[15.4 µM]
O=c1cc(-c2ccc(Cl)cc2)oc(=O)[nH]1	14%	-5	0.0%	-1.2	-2%	-15	21%
CC(C)CCN1CCN(Cc2ccc(N3CCNC3=O)cc2)CC1CCO (stereo unspecified)	-6%	2	1.9%	1.0	15%	-17	?
O=C(CCc1ccccc1)Nc1ccc(N2CCOCC2)cc1	10%	3	0.0%	-1.6	-1%	3	-1%
O=c1c2ccccc2n(Cc2ccc(F)cc2)c(=O)n1C1CCCC1	-5%	-16	-8.4%	1.4	11%	24	10%
Cc1ccccc1NC(=O)c1ccno1	19%	-9	nt	0.0	21%	-1	8%[15.4 µM]

One compound at a time, from the list above.
`COC(=O)c1ccccc1-c1ccc(C(c2c(C)[nH][nH]c2=O)c2c(C)[nH][nH]c2=O)o1` is entered as Sfp PPTase inh = 6%; TRPV1 PAM = -12; ClpP mod = nt; Menin-MLL FL inh = -2.9; gsp antag = 4%; D2 potentiator = -2; gsp ag = 38%[15.4 µM]
`OCCN=C1CCCc2c1[nH]c1ccc(Cl)cc21` is entered as Sfp PPTase inh = -5%; TRPV1 PAM = -13; ClpP mod = nt; Menin-MLL FL inh = 0.1; gsp antag = 7%; D2 potentiator = 2; gsp ag = 5%[15.4 µM]

(list continues)
SMILES	Sfp PPTase inh	TRPV1 PAM	ClpP mod	Menin-MLL FL inh	gsp antag	D2 potentiator	gsp ag
COc1cc(-c2nnc(NC(=O)c3ccc(S(=O)(=O)N4CCOCC4)cc3)o2)cc(OC)c1OC	-5%	2	nt	-0.4	nt	nt	nt
COC(=O)C(C)n1cnc2c(nnn2-c2ccccc2)c1=O (stereo unspecified)	8%	-8	-1.6%	2.9	4%	-3	-7%
CCSc1ccc2c(c1)N(CCCN1CCN(C)CC1)c1ccccc1S2	-9%	-13	-0.4%	2.1[24.8 µM]	3%	-37	nt
CCCCCCCCSc1nnc2[nH]c(=O)cc(N)n12	5%	2	nt	-1.3	11%	0	-4%[15.4 µM]

From PubChem
